# Bst PK mod: modulators of Bacillus stearothermophilus pyruvate kinase. partly purified Bacillus stearothermophilus pyruvate kinase, luminescence ATP production; ribose 5-phosphate activator present at AC10. Potency, µM. 1.2% of 51,000 active; in the data active means potency below about 11 µM; inconclusive means mostly about 12 µM to 25 µM; inactive means weaker than that;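 the screen sought inhibitors and activators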;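 further: potency means the concentration at half of the fitted maximal effect; scaled between full activation by ribose 5 phosphate and full inhibition by luteolin; about four in five hits inhibit and the cells do not say which; series up to 57 µM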
# YjeE inh: inhibitors of E. coli YjeE (TsaE); 0.05% of 71,000 active; purified YjeE, fluorescence polarisation of a bound ADP probe; Potency, µM; active = well fitted falling curve; inconclusive = weaker or top-dose-only fall, or a rising curve; inactive = flat or poorly fitted curve;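 further: top concentration of the series not given in the record; excess ADP was the control for the full effect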
#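 Fluorescence polarization of a BODIPY Texas Red–ADP probe (2 uM) bound to purified YjeE (10 uM) was read after 15 min room-temperature incubation with compounds. Loss of polarization marks inhibitors; ADP serves as titrated control.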
# * = called active by the depositor; i = inactive; / = not tested or not shown. The list is partial. The share of hits here may be higher or lower than overall.
YjeE inh	Bst PK mod	molecule
i	>57	CCN(CC)c1ccc(C2CC(=O)Nc3cc(OC)c(OC)cc32)cc1 (centres undefined)
i	>57	Cc1c(/C(O)=C2\C(=O)C(=O)N(CCCN(C)C)C2c2ccncc2)cnn1-c1ccccc1 (centres undefined)
/	>11.4	Fc1ccccc1/C=N/n1cnnc1
i	>57	O=C(COC(=O)CCC1CCCC1)Nc1ccc(Cl)cn1
i	>57	CCc1c(C)nc2ncnn2c1NCCc1ccc(OC)c(OC)c1
i	>57	CCN1CCCC1CNC(=O)COc1cc(=O)n(C)c2ccccc12 (centres undefined)
i	/	COc1cc(C2N(c3ccc(F)cc3)C(=O)C3CCCN32)cc(OC)c1OC (centres undefined)
i	>57	COC(=O)Cc1c(C)c2ccc(OCC(=O)NCc3ccc4c(c3)OCO4)cc2oc1=O
i	>57	COCCNC(=O)C(c1ccc(C)o1)N(C(=O)c1snc(C(N)=O)c1N)c1cc(C)cc(C)c1 (centres undefined)
i	>57	CCOC(=O)CC(=O)CSc1nc2ccccc2c(=O)n1-c1ccc(C(=O)N2CCOCC2)cc1
/	>25.6	c1ccc(C2=Nn3c(nnc3-c3ccccn3)SC2)cc1
i	>57	COCC(C)NCc1ccc(C)cc1C (centres undefined)

# Following part:
YjeE inh	Bst PK mod	molecule
i	/	COC(=O)C1C(=O)c2c([nH]c(C(=O)OCC3CCCO3)c2C)CC1C (centres undefined)
i	>57	O=S(=O)(NCC1CCCO1)c1cccc(S(=O)(=O)N2CCCC2)c1 (centres undefined)
/	>25.6	COc1ccc2nc(SCC(=O)O)nc(C)c2c1
i	>57	Cc1cc(C)n(-c2ccc(C(=O)OCC(=O)c3c(N)n(C)c(=O)n(C)c3=O)cc2)n1
i	>57	COc1cccc(CNC(=O)C2CCN(S(=O)(=O)c3ccccc3)CC2)c1
i	>57	Cc1nonc1NC(=O)N1CCCC1
i	>57	Cc1cccc(NC(=O)c2oc3ccc(S(=O)(=O)N4CCOCC4)cc3c2C)c1C
i	>57	COc1ccc(OC)c(C(c2nnnn2CCC(C)C)N2CCN(C(=O)c3ccco3)CC2)c1 (centres undefined)
i	>57	O=C(CSc1nnc(C23CC4CC(CC(C4)C2)C3)o1)Nc1ccc(N2CCOCC2)c(Cl)c1
i	/	COc1cccc(OC(=O)CSc2nnc(-c3ccccc3Br)o2)c1
i	/	O=S(=O)(c1ccc(Cl)cc1)N1CCN(C2CCCCCC2)CC1
i	>57	O=C(OC1CCOC1=O)c1ccc2ccccc2n1 (centres undefined)

# Shown with each value named: entries from further up.
O=S(=O)(NCC1CCCO1)c1cccc(S(=O)(=O)N2CCCC2)c1 (centres undefined)
  YjeE inh: i; Bst PK mod: >57

COc1ccc2nc(SCC(=O)O)nc(C)c2c1
  YjeE inh: /; Bst PK mod: >25.6

Cc1cc(C)n(-c2ccc(C(=O)OCC(=O)c3c(N)n(C)c(=O)n(C)c3=O)cc2)n1
  YjeE inh: i; Bst PK mod: >57

COc1cccc(CNC(=O)C2CCN(S(=O)(=O)c3ccccc3)CC2)c1
  YjeE inh: i; Bst PK mod: >57

# Next part:
YjeE inh	Bst PK mod	molecule
i	>57	CCS(=O)(=O)N1CCC(NC(C)=O)(c2ccccc2)CC1
i	>57	CC(C)COC(=O)n1ccc(C(=O)N2CCCCC2)n1
i	>57	N#Cc1nc(-c2ccco2)oc1N1CCOCC1
i	/	CC(=O)c1ccc2c3c(ccc(O)c13)CC2
i	/	O=C(O)COc1ccc2c(-c3ccccc3)cc(=O)oc2c1
i	/	Cc1cc(N2C(=O)C3C4c5ccccc5C(c5ccccc54)C3C2=O)no1 (centres undefined)
i	/	COc1ccccc1-c1cncnc1-n1ccnc1
i	/	COc1ccc2oc(C(=O)C3CC3)c(N)c2c1
i	>57	CCCc1nnc(NC(=O)CCC(=O)N2CCCCCC2)s1
i	>57	CN=C(Nc1cc(C)nn1-c1ccccc1)c1ccc(F)cc1
i	/	O=C(Cn1cc2c(n1)CCCCC2)NC1CCCCCC1
i	>57	FC(F)(F)c1ccc(N2CCOCC2)c(NC2=NCCCCC2)c1

# (more compounds)
YjeE inh	Bst PK mod	molecule
i	/	CC(C)CNc1nc(N)[nH]c(=O)c1NC=O
i	>57	COc1ccc(N2CCN(C(c3nnnn3CCc3ccccc3)C(C)C)CC2)cc1 (centres undefined)
i	>57	Cc1cccn2c(=O)c3cc(C(=O)NCC4CCCO4)n(C)c3nc12 (centres undefined)
/	>25.6	CC1(C)CC(=O)C(CCCN2C(=O)c3ccccc3C2=O)C(=O)C1
i	>57	CC(=O)c1ccc(OC(C)C)c(CN2CCCCC2)c1
i	/	CN1CCN(C(=O)C(Cc2ccccc2)NS(=O)(=O)c2ccc3c(c2)CCC(=O)N3)CC1 (centres undefined)
i	>57	COc1ccc(-c2cc(C(=O)N3CCN(C(c4ccccc4)c4ccccc4)CC3)no2)cc1OC
i	/	C[C@@](Cc1ccccc1)(NC(=O)CN)c1ccccc1
i	/	CC(=O)Nc1cccc(NC(=O)c2c(-c3c(Cl)cccc3Cl)noc2C)c1
i	>57	COc1cc(C)nc(N2CCC(C(N)=O)CC2)n1
i	/	CCCn1c(-c2ccc(F)cc2)nc2c(NCCN(CC)CC)nc(C)nc21
i	>57	CN(C)c1ccc(C(=O)OCC(=O)Nc2ccc(S(N)(=O)=O)cc2)cc1

# Molecules above that contain fluorine:
YjeE inh	Bst PK mod	molecule
/	>11.4	Fc1ccccc1/C=N/n1cnnc1
i	/	COc1cc(C2N(c3ccc(F)cc3)C(=O)C3CCCN32)cc(OC)c1OC (centres undefined)
i	>57	CN=C(Nc1cc(C)nn1-c1ccccc1)c1ccc(F)cc1
i	>57	FC(F)(F)c1ccc(N2CCOCC2)c(NC2=NCCCCC2)c1
i	/	CCCn1c(-c2ccc(F)cc2)nc2c(NCCN(CC)CC)nc(C)nc21

# Later entries
YjeE inh	Bst PK mod	molecule
i	>57	CCC(CC)C(=O)Nc1nnc(-c2cccs2)s1
i	/	CN(CCO)c1ncnc2nc[nH]c12
i	/	c1ccc2scnc2c1
i	>57	CC(=O)c1ccc(NC2CC(O)C(O)CO2)cc1 (centres undefined)
i	/	CC(=O)Nc1ccc(S(=O)(=O)N2CCN(c3ccc(C)c(Cl)c3)CC2)cc1
i	/	COc1ccc(N2CC(C(=O)NC3CC(C)(C)NC(C)(C)C3)CC2=O)cc1 (centres undefined)
i	/	CCOc1ccc(C(=O)Nc2cc(OC)ccc2OC)cc1
i	>57	CC(C(=O)N1c2ccccc2Sc2ccccc21)n1nnc(-c2cccs2)n1 (centres undefined)
i	/	COCCn1c(=O)cnc2cnc(N3CCOCC3)nc21
i	/	Cn1c(Cn2c(=O)sc3ccccc32)nnc1SCC(=O)NC1CCCCC1
i	/	Cn1nnc2cc(C(=O)N3CCN(c4ccccc4)CC3)ccc21
i	>57	CCOc1cc2[nH]c(=S)n(CC3CCCO3)c(=O)c2cc1OCC (centres undefined)

# (continued)
YjeE inh	Bst PK mod	molecule
i	/	CN(c1ccccc1)c1nc(N2CCCC2)nc(-n2ccnc2)n1
i	>57	c1ccc(CNC2=NCCC2)nc1
i	>57	CN1CCCC(C(=O)C(C#N)c2ccccc2)C1 (centres undefined)
i	>11.4	Cc1ccc2[nH]c(=O)c(CN(CCO)Cc3nnnn3CCc3ccccc3)cc2c1
i	>57	C=CCn1c(=O)[nH]c2cc(C(=O)N3CCN(c4cccc(Cl)c4)CC3)ccc2c1=O
i	>57	CNS(=O)(=O)c1cccc(C(=O)OCC(=O)c2cc(C)n(-c3ccc4c(c3)OCO4)c2C)c1
/	>25.6	Cc1ccc2cc(CNC(C)C)c(=O)[nH]c2c1
i	>57	CC(Oc1ccc(Cl)cc1Cl)c1nc(-c2ccc(NC(=O)c3cccnc3)cc2)no1 (centres undefined)
i	>57	O=C(NCc1cccnc1)C(C(=O)c1ccc(F)cc1)n1ccccc1=O (centres undefined)
i	>57	CCC(=O)Nc1cccc(NC(=O)CN2CCN(c3ccccc3OC)CC2)c1
i	>57	COc1ccc(CCN2C(=O)c3[nH]nc(-c4ccccc4O)c3C2c2ccccc2)cc1OC (centres undefined)
i	>57	O=C(NCc1cccc(Cl)c1)c1cccnc1

# Following part.
YjeE inh	Bst PK mod	molecule
i	>57	O=S(=O)(Nc1ccc(-c2cn3ccsc3n2)cc1)c1ccc2c(c1)OCCO2
i	>57	CCOc1[nH]c(/N=C/c2ccco2)c(C#N)c1C#N
i	>57	Cc1cc(C(=O)CN2C(=O)NC(C)(c3cccc(Br)c3)C2=O)c(C)n1Cc1ccco1 (centres undefined)
i	/	S=C(Nc1ccccn1)c1ccccn1
i	>57	COc1ccc2cc(CN(C(=O)Nc3ccccc3)C3CCCC3)c(=O)[nH]c2c1
i	>57	NC(=O)NC(CC(=O)OCC(=O)NC(=O)NCc1ccco1)c1ccc(Cl)cc1 (centres undefined)
i	>57	COc1ccccc1NC(=O)Oc1ccc(NC(=O)c2ccco2)cc1
i	>57	COc1ccc(NC(=O)c2ccco2)cc1NC(=O)c1cc2ccccc2o1
i	>57	CCOc1ccccc1C1NC(=O)NC(C)=C1C(=O)OC1CCCC1C (centres undefined)
i	>57	Cc1cc(C)nc(Nc2nc(C)c3cc4c(cc3n2)OCO4)n1
i	i	c1ccc(-n2nc3c(ccc4cnnc43)[nH]2)cc1
i	/	CCN(CCCNC(=O)Cn1cc2c(n1)CCCC2)c1cccc(C)c1

# Later entries
YjeE inh	Bst PK mod	molecule
i	i	O=C(O)C1=C(C(=O)N2CCN(C(=O)c3ccco3)CC2)CCCC1
i	/	O=C(Nc1ccc(O)c(C(=O)O)c1)c1ccc2c(c1)C(=O)N(CC1CCCO1)C2=O (centres undefined)
i	>57	Cc1sc(NC(=O)CSc2nnc(COc3ccc(Cl)cc3)n2C)c(C#N)c1C
i	>57	CCOC(=O)c1nnn(-c2nonc2N)c1CN1CCCCCC1
i	>57	Cc1ccc(-n2ncc3c(=O)n(CC#N)cnc32)cc1C
i	/	COC(=O)c1ccccc1NC(=O)Cn1c(=O)oc2ccc(Cl)cc21
i	/	O=C1NCC2=C1C(c1ccccc1)Nc1ccccc1N2 (centres undefined)
i	>57	COCCn1nnnc1C(c1ccc(OC)cc1)N1CCC(C)CC1 (centres undefined)
i	>57	CCOC(=O)c1cnc2nc(C)[nH]n2c1=O
i	/	COc1ccc(N(CC(=O)N2CCN(Cc3ccc4c(c3)OCO4)CC2)S(C)(=O)=O)cc1OC
i	>57	CCn1nnnc1SCC(=O)NCc1cccs1
i	i	CCOC(=O)c1ccc(NC(=O)N2CCc3ccccc32)cc1

# The listing continues:
YjeE inh	Bst PK mod	molecule
i	i	CN(C)C1NC(=O)c2cc(-c3ccccc3)sc2N1 (centres undefined)
i	/	Cn1c(=O)c(-c2cccs2)nc2cnc(N3CCOCC3)nc21
i	/	COc1ccc(O)c(C(=O)CC(=O)c2ccc(F)cc2)c1
i	>57	CCOC(=O)c1sc2nc(-c3ccco3)c3c(c2c1N)CC(C)(C)OC3
i	>57	O=C(c1ccc(Cl)s1)N1CCOCC1
i	>57	CCOC(=O)c1ccc(NC(=O)C(CC)(CC)C(=O)OCC)cc1
i	>57	Cc1nc(N2CCCC2)c2nnn(Cc3ccccc3Cl)c2n1
i	/	CCOc1cc(C(=O)NCCOC)cc(OCC)c1OCC
i	/	c1ccc(N2CCN(c3ncnc4sc5c(c34)CCC5)CC2)cc1
i	>57	Cc1cc(C)n(CC(O)COCc2ccccc2)n1 (centres undefined)
i	>57	Cc1csc(SCCn2c(N3CCN(c4ccccc4)CC3)nc3c2c(=O)[nH]c(=O)n3C)n1
i	/	Oc1c(C(c2ccco2)N2CCC3(CC2)OCCO3)sc2ncnn12 (centres undefined)

# Other records:
YjeE inh	Bst PK mod	molecule
i	/	COc1ncc2nc(CCc3ccccc3)c(=O)n(C)c2n1
i	>57	CC(C)(C)NC(=O)COC(=O)c1ccc(O)cc1
i	>57	CCC(=O)N1CCN(c2ccccc2NC(=O)COc2cccc(C)c2)CC1
i	>57	CC1CN(C(=O)CN2C(=O)NC(C)(c3ccccc3)C2=O)CC(C)O1 (centres undefined)
i	/	CC(C)NC(=O)[C@H]1C[C@@H]1[C@H](NC(=O)OCc1ccccc1)c1ccccc1
i	>57	CCOCc1nnc(NC(=O)CCc2ccccc2)s1
i	/	CC(C)(N=NC(C)(C)C(=N)N)C(=N)N
i	>57	Cc1nc(C)c(C(=O)C2=C(O)C(=O)N(CCCn3ccnc3)C2c2ccc(Cl)cc2)s1 (centres undefined)
i	>57	CCCc1cc(=O)[nH]c(SCC(=O)N(CC)Cc2ccccc2)n1
i	/	CN(C)Cc1ccccc1-c1nc(NC2CCNCC2)c2ccccc2n1
i	>57	CCOc1ccccc1Nc1nnc(SCC(=O)N2CCCC2)s1
i	>57	Cc1cc(C(=O)CSc2nnc(-c3ccccc3)n2Cc2ccc3c(c2)OCO3)c(C)n1C

# For reference, some entries already given.
YjeE inh	Bst PK mod	molecule
i	/	CC(C)NC(=O)[C@H]1C[C@@H]1[C@H](NC(=O)OCc1ccccc1)c1ccccc1
i	>57	CCOCc1nnc(NC(=O)CCc2ccccc2)s1

# The listing continues:
YjeE inh	Bst PK mod	molecule
i	>57	N#CC1=C(N)N(c2ccccc2Sc2ccccc2)C(=O)C1
i	8.23*	COc1ccc(-n2nc(C(=O)NCC(=O)N3CCN(c4ccccn4)CC3)c3ccccc3c2=O)cc1
i	>57	CCOc1nc(-c2ccc(C)cc2)ccc1-c1noc(-c2cccnc2)n1
i	>57	CC(=O)Nc1cccc(NC(=O)c2sc3ncn(CC(=O)N4CCCCC4)c(=O)c3c2C)c1
/	>25.6	Cc1nc(SCC(N)=O)[nH]c(=O)c1Cc1ccc(OC(C)C)cc1
i	/	COc1cc2c(c(OC)c1)C(c1cccc(OC)c1OC)CC(=O)N2 (centres undefined)

# Bioassay records deposited in PubChem by National Center for Advancing Translational Sciences (NCATS).
